# Screening data deposited in PubChem BioAssay by ICCB-Longwood Screening Facility, Harvard Medical School.
# CapD inh: Bacillus anthracis CapD inhibitors, primary screen, biochemical, fluorescence intensity; purified CapD enzyme, fluorescence intensity read-out; hits give low values; some hits fall short of the stated cut; CapD gamma-glutamyltranspeptidase (Bacillus anthracis Ames Ancestor); z-score (concentration not given with the values); 140,000 compounds, 0.23% hits;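 active = z-score under -4 in either of two replicates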;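 also: stock transfer was 100 nL into about 40 µL; score is relative to mean and spread of the plate; one replicate is shown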
# AID504770: growth inhibition of E. coli YBA685, primary screen, V. cholerae RctB inhibitors. AID 504770, 2011. 130,000 compounds, 0.27% hits. z-score (concentration not given with the values). E. coli YBA685 rctB-dependent plasmid, OD600 growth, 3 h; hits give low values;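 active = z-score under -2 on both plates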;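 also: wells of about 30 µL received 100 nL stock; score is relative to mean and SD of the test wells; the first replicate is given; strong numbers were not always called active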
# An asterisk follows results filed as active; · = no result given.
# Each structure is followed by: CapD inh | AID504770
O=C(Nc1ccc(N2CCN(Cc3ccccc3)CC2)cc1)Nc1ccc(C(F)(F)F)cc1
  0.68 | 1.2
CCCS(=O)(=O)c1c(S(=O)(=O)CCC)c2c(C)cccn2c1C(=O)N/N=C\c1c[nH]c2ccccc12
  6.2 | ·
NC1=NC(=O)/C(=C/c2ccccc2OCC(=O)Nc2ccc(F)cc2)S1
  · | 1.1
c1ccc(Cn2c(SCCOc3ccccc3)nnc2-c2ccco2)cc1
  · | 0.15
CCC(c1nnnn1C(C)(C)CC)N(Cc1cc2ccc(C)cc2[nH]c1=O)C1CCCC1 (stereo unspecified)
  · | -0.65
COc1ccccc1C1C(C(=O)c2sc(C)nc2C)=C(O)C(=O)N1CCCN1CCOCC1 (stereo unspecified)
  -0.36 | 1.6
NNc1ncc(Cl)cc1C(F)(F)F
  0.47 | 0
Clc1ccc(C2NN=C3C4CCN(CC4)C32)cc1Cl (stereo unspecified)
  0.24 | ·
COc1cccc(C2=NN(c3ccc(F)cc3)C(c3ccc(Cl)cc3)C2)c1 (stereo unspecified)
  41 | ·
CCN1C(=O)c2cccc3c(S(=O)(=O)N(CCO)CCO)ccc1c23
  4.6 | ·

# Each structure is followed by: CapD inh | AID504770
COc1ccc(NC(=O)c2nn(-c3ccccc3)ccc2=O)cc1
  -0.76 | -0.3
CNC(=O)Cc1coc2ccc3ccccc3c12
  0.77 | -0.25
CCOC(=O)N1CCN(CC(O)c2ccc3cc[nH]c3c2)CC1 (stereo unspecified)
  0.9 | -0.15
CCOc1ccc2ccccc2c1/C=C(\C#N)C(=O)NCc1ccco1
  -0.12 | -0.6
O=C(NCc1ccncc1)c1cc(C(=O)C2CC2)c[nH]1
  -0.21 | -0.7
CCOC(=O)c1cnc2ccccc2c1Nc1cccc(C(=O)OC)c1
  0.62 | ·
Cc1onc(-c2c(F)cccc2Cl)c1NC(=O)Oc1ccc(CC#N)cc1
  0.28 | 0.7
O=C1CC(c2cccc(Br)c2)n2ncnc2N1 (stereo unspecified)
  0.62 | 0.15
Cc1nnc(SCC(=O)N2CCCC2)n(N)c1=O
  · | 0.65
CCOC(=O)c1cc(CC)sc1NC(=O)C#Cc1ccccc1
  0.55 | -0.05

# Each structure is followed by: CapD inh | AID504770
CC(C)n1c(C(F)(F)F)nc2cc(S(C)(=O)=O)ccc21
  -0.32 | ·
CCCCCCN1C(=O)CSC1c1ccccc1 (stereo unspecified)
  · | -0.25
O=C(NCC1CCCO1)c1ccccc1NS(=O)(=O)c1cccs1 (stereo unspecified)
  · | -0.8
CN(Cc1c(F)cccc1Cl)Cn1nnc(-c2ccccc2)n1
  · | -0.5
COc1ccc(-c2nocc2C#N)cc1
  -2.3 | -1.9
O=C(Cc1csc(NC(=O)c2ccco2)n1)NC1CCCCCC1
  · | 0.3
CC(C)(C)c1cc(NC(=O)CSc2nc3ccccc3c(=O)n2-c2ccc(Cl)cc2)on1
  · | 1.3
COCc1nc2ccccc2c2c1C(=O)N(NC(=O)c1ccccc1CCc1ccccc1)C2=O
  -0.34 | ·
CC1(C)CC(=O)C=C(NC(=O)Nc2ccc(Cl)cc2)C1
  1.4 | -0.75
Cc1ccc(C)c(Oc2coc3cc(OC(=O)c4ccco4)ccc3c2=O)c1
  -0.34 | 1.5

# Each structure is followed by: CapD inh | AID504770
Cc1ccc(C(=O)NC(C)c2ccncc2)cc1 (stereo unspecified)
  1.3 | -0.5
CCOC(=O)C1=C(CC)Nc2ccccc2N=C1NC(=O)c1cccc(S(=O)(=O)N2CCCC2)c1
  · | -0.05
CCOC(=O)C(Cc1ccc(COC)cc1)(NC(C)=O)C(=O)OCC
  -0.5 | ·
Nc1nc(SCC(=O)N2CCc3ccccc32)n[nH]1
  0.65 | -0.2
NC(=O)C(CNS(=O)(=O)c1ccc(Cl)cc1)Sc1ncccn1 (stereo unspecified)
  -0.15 | 1.2
CC(NC(=O)CSC1=NCCS1)c1ccccc1 (stereo unspecified)
  -0.36 | -0.85
FC(F)(F)c1nc(SCc2ccc(Cl)cc2Cl)n[nH]1
  0.065 | 0.05
N#Cc1ccccc1OCC(=O)OC1CCOC1=O (stereo unspecified)
  · | -0.3
Cc1onc(-c2ccccc2Cl)c1C(=O)NC(=S)NCc1ccco1
  -0.33 | -0.25
Cc1ccc(-n2c(C)cc(CC#N)c2C)cc1
  · | -0.75

# Each structure is followed by: CapD inh | AID504770
Fc1ccc(CN=Cc2cc3ccccc3nc2Cl)cc1
  2 | -0.15
Cc1nn2c3c(cnc2c1-c1ccccc1)C(=O)CC(C)(C)C3
  2.5 | 2.5
O=C(/C=C\c1cn(-c2ccccc2)nc1-c1cccs1)N1CCCCC1
  25 | 0.95
CCN(CC)c1ncnc2sc(C(=O)Nc3ccc(OC)cc3OC)c(C)c12
  0.17 | ·
COc1ccc(C2=C(C)C(c3cccs3)c3ccccc3O2)cc1 (stereo unspecified)
  0.55 | 0.75
Cc1cc2ncc(S(=O)(=O)c3ccc(Cl)cc3)c(C)n2n1
  -0.36 | 2.3
COc1ccc2c(c1)CCc1cn3ncc(C#N)c3nc1-2
  15 | 0.25
Cc1ccc(-n2c(SCc3ccc(C#N)cc3)nc3ccccc32)cc1
  · | 0.15
CC(OC(=O)CSc1nc2ccccc2o1)C(=O)Nc1ncc(Cl)cc1Cl (stereo unspecified)
  · | -0.15
CC(NC(=O)c1ccccc1NC(=O)c1ccco1)C(=O)NN(c1ccccc1)c1ccccc1 (stereo unspecified)
  · | -0.15

# Retrieved one by one from the entries so far, 2 records:
# Each structure is followed by: CapD inh | AID504770
Cc1ccc(-n2c(SCc3ccc(C#N)cc3)nc3ccccc32)cc1
  · | 0.15
Fc1ccc(CN=Cc2cc3ccccc3nc2Cl)cc1
  2 | -0.15

# More structures follow.
# Each structure is followed by: CapD inh | AID504770
Cn1c(-c2ccccc2)nn(CN2CCC(C(N)=O)CC2)c1=S
  0.49 | 0.15
Cc1noc(C)c1COc1ccccc1C(=O)N1CCCc2ccccc21
  · | 0.3
Cc1ccc(S(=O)(=O)Cc2ccc(C(F)(F)F)cc2)cc1
  -0.015 | -0.9
CCOC(=O)C1=NOC(CNC(=O)C2CCN(c3ncccn3)CC2)C1 (stereo unspecified)
  0.67 | ·
CC(C)OC(=O)C1C(=O)NC2(C)CC1c1ccccc1O2 (stereo unspecified)
  · | -0.4
CCCC(C)C1(CC)C(=O)N=C(S)NC1=O (stereo unspecified)
  0.43 | ·
COC(=O)c1ccc(CCN2CCCC2)nc1
  -0.56 | ·
CCc1ccc(OC)c(-c2csc(N)n2)c1
  · | -1.1
Nc1cc(-c2ccccc2)n(C(=O)Nc2ccc(Cl)cc2)n1
  -0.67 | 0.8
Cc1cc(C)n(CC(=O)N/N=C/c2ccccc2)n1
  0.11 | -0.55

structure,CapD inh,AID504770
CCOc1ccc(Nc2c3c4c(cccc4[nH]c2=O)C(=O)c2ccccc2-3)cc1,·,-0.6
COC(=O)C1C(=O)NCC1c1ccc(OC)cc1 (stereo unspecified),0.095,-0.7
CC(=C/c1ccccc1)/C=N/n1c(C)n[nH]c1=S,-1,-0.1
CC(CN1CCCCC1)OC(=O)c1cccs1 (stereo unspecified),-0.095,-1.1
CCCCSC1=C(C#N)C(=O)NC(c2ccco2)S1 (stereo unspecified),-2,1.6
Cc1cc(C)n(CCCNC(=O)CSc2nc(-c3ccccc3)c(-c3ccccc3)o2)n1,·,1.2
Cc1ccc(NS(=O)(=O)c2ccc(Cl)cc2)c(N)c1,-0.45,·
O=C(CSc1nc2ccccc2c(=O)n1CCc1ccccc1)NCCc1ccccc1,0.51,0.6

# The final 3 entries of the part before open the next one.
structure,CapD inh,AID504770
Cc1cc(C)n(CCCNC(=O)CSc2nc(-c3ccccc3)c(-c3ccccc3)o2)n1,·,1.2
Cc1ccc(NS(=O)(=O)c2ccc(Cl)cc2)c(N)c1,-0.45,·
O=C(CSc1nc2ccccc2c(=O)n1CCc1ccccc1)NCCc1ccccc1,0.51,0.6
COc1cc(N(C)C)ccc1CN1CCCC(COC(=O)NC(C)c2cccc3c2OCCO3)C1 (stereo unspecified),0.8,·
O=C1NC(=O)N(c2ccc3c(c2)OCO3)C(=O)/C1=C/c1ccc(N2CCCCC2)o1,-0.09,·
C#CCOC(=O)Nc1cnc(OC)c(C(F)(F)F)c1,0.37,-0.1
CCOc1cc(C2C(C(=O)OC)=C(C)NC3=C2C(=O)CC(c2ccc(OC)cc2)C3)ccc1OC(C)=O (stereo unspecified),48,·
O=[N+]([O-])c1ccc(N2CCN(c3ncc(C(F)(F)F)cc3Cl)CC2)cc1,-0.72,·
C=CCNC(=O)COc1cc(C)c(Cl)c(C)c1,0.74,0.55
Fc1ccc(-c2nnc(C3CCNCC3)o2)cc1,-0.41,·
O=C(Nc1ccc(NS(=O)(=O)c2cc(C(=O)Nc3ccccc3)ccc2Cl)cc1)c1ccccc1,-0.29,·

# Some of the entries so far, field by field:
O=[N+]([O-])c1ccc(N2CCN(c3ncc(C(F)(F)F)cc3Cl)CC2)cc1
  CapD inh: -0.72; AID504770: ·
C=CCNC(=O)COc1cc(C)c(Cl)c(C)c1
  CapD inh: 0.74; AID504770: 0.55
Fc1ccc(-c2nnc(C3CCNCC3)o2)cc1
  CapD inh: -0.41; AID504770: ·
O=C(Nc1ccc(NS(=O)(=O)c2cc(C(=O)Nc3ccccc3)ccc2Cl)cc1)c1ccccc1
  CapD inh: -0.29; AID504770: ·

# Remaining list, next part.
structure,CapD inh,AID504770
COCCn1nnnc1CN1CCC(NC(=O)Nc2cccc(OC)c2)CC1,·,-1.5
CCNc1ccc(P(=O)(CC)CC)cc1,·,-0.75
COc1ccc(CC(=O)N=c2sc3cc(Cl)ccc3n2C)cc1,-1.3,1.8
CC1(C#CCN2CCCCC2)CCC2C(O1)c1ccccc1OC2(C)C (stereo unspecified),-0.56,·
O=C(O)c1cccc(N2C(=O)/C(=C\C=C\c3ccco3)SC2=S)c1,·,0.15
Cc1ccc2c(Cl)cc(Cl)c(OCC(=O)NCc3ccco3)c2n1,0.66,-1.4
c1ccc(C2=Nc3ccccc3C(c3ccncc3)=NN2)cc1,-0.14,-0.55
COc1ccc(C2c3c(-c4ccccc4)n[nH]c3C(=O)N2c2ccccc2)cc1OC (stereo unspecified),-0.26,·

structure,CapD inh,AID504770
Cc1ccc(C=Nc2ccc(C(N)=O)cc2)o1,0.46,0.05
Cc1ccc(-c2nn(CCC(=O)NCCN3CCOCC3)c(=O)c3ccccc23)cc1,0.26,-0.25
Cn1c(N)c(C(=O)COC(=O)C2=NNC(=O)CC2)c(=O)n(C)c1=O,·,0.25
O=C(NCC1CCCCC1)C1CCN(c2cnccn2)CC1,4.2,-0.2
O=C(CC1Sc2ccccc2NC1=O)N/N=C/c1cc(F)c(F)cc1F (stereo unspecified),-0.97,·
O=S(=O)(NCCc1ccccn1)c1ccc(-c2ccon2)s1,-0.095,0.7
CS(=O)(=O)O/N=C1\CCCCC1c1ccc([N+](=O)[O-])cc1[N+](=O)[O-] (stereo unspecified),-0.99,·
O=C1CC(=O)N(c2ccccc2)C(=O)N1c1ccccc1,·,-0.05

structure,CapD inh,AID504770
Cc1cc(C)nc(Sc2cccc(NC(=O)C(C)(C)C)c2)n1,-0.37,·
CC1(C)Cc2c(C#N)c3nc(-c4ccccc4)cnn3c2CO1,28,-1
Cc1c(C(=O)O)sc2ncnc(N3CCOCC3)c12,-0.32,·
N#CC1=CS/C(=C2\C(=O)NN(c3ccccc3)C2=O)SC1=N,-1.5,0.4
COc1ccc(Nc2c3c4c(cccc4n(C)c2=O)C(=O)c2ccccc2-3)cc1,-0.9,·
Cc1cc(NC2c3ncccc3C(=O)N2C2CCCCC2)ccc1Br (stereo unspecified),1.9,-0.7
O=C(NCc1ccco1)c1sc2ccccc2c1Cl,0.18,-0.15
CNc1nc(C23CC4CC(CC(C4)C2)C3)ns1,-0.46,-0.85

structure,CapD inh,AID504770
COc1ccc2cc3c(N)c(C(=O)Nc4ncc(C)s4)sc3nc2c1,·,0.25
OCc1nnn(-c2ccccc2)c1CO,-0.55,1.8
Cc1[nH]c2ccc(C(=O)OCc3nnc(-c4ccccc4)o3)cc2c1C,·,0.1
Nc1nccc(-c2csc(COc3ccc(Cl)cc3)n2)n1,-1.8,0.75
Cc1ccc(C(=O)C(C)S(=O)(=O)c2ccc(Cl)cc2)cc1Cl (stereo unspecified),-0.52,-0.5
COc1ccc2[nH]cc(CCN(C)C)c2c1,-0.39,2
C=CCNC(=O)CN1CCN(c2ccccc2)CC1,·,0.25
CC(C)C(O)P(=O)(OCc1ccccc1)c1ccc(N(C)C)cc1 (stereo unspecified),-0.34,-1.1

structure,CapD inh,AID504770
CSc1cccc(N2C(=O)SC(c3ccccc3)C2=O)c1 (stereo unspecified),0.72,0.75
CCOC(=O)C1CCN(c2c(S(=O)(=O)c3ccccc3)cnc3ccc(F)cc23)CC1,-1.2,-1.2
NC(=O)Cn1nc(C(F)(F)F)c2c1CCCC2,0.26,-0.9
FC(F)(F)c1ccc(N2CCNCC2)nc1,0.59,-1
CCOC(=O)N1CCN(S(=O)(=O)c2cccc3nonc23)CC1,0.18,·
CC(=O)Nc1ccc(-c2cn3cccnc3n2)cc1,115,-1.9
CC1CCCCN1C(=O)C12CCC(C)(C(=O)C1)C2(C)C (stereo unspecified),·,0.15
Cc1ccc2ncc(C(=O)N3CCc4ccccc4C3)c(=O)n2c1,43,0.15

structure,CapD inh,AID504770
CCn1c(SCC(=O)OCc2nc3ccccc3c(=O)n2CC#N)nnc1-c1cccs1,·,1.6
O=C(CSc1ccc(S(=O)(=O)N2CCN(Cc3ccccc3)CC2)cn1)NC(=O)NC1CCCC1,·,-0.5
C[N+]12CN3CN(CN(C3)C1)C2,·,-0.3
CCOC(=O)c1c(C)oc2nc(C)nc(N3CCc4cc(OC)c(OC)cc4C3C)c12 (stereo unspecified),-0.15,0.05
O=C(Nc1nc2c(F)cccc2s1)c1ccco1,-0.65,0.4
Cc1ccccc1NC(=O)COC(=O)c1cccc2ccccc12,4.5,0.1
CCCCn1c(SC(C)C(N)=O)nc2ccccc2c1=O (stereo unspecified),·,-0.45
